Source: PubChem BioAssay (National Center for Advancing Translational Sciences (NCATS))
Six1-Eya2 inh = qHTS Assay for Inhibitors of the Six1/Eya2 Interaction | Homeobox protein SIX1 (Homo sapiens) + Protein phosphatase EYA2 (Homo sapiens), … | AlphaScreen GST-Six1/His-Eya2 binding, biochemical; hits give low values; control for the full effect not named in the record | activity change, % (test concentration not listed) | actives 0.56% (n = 360,000); in the data active = activity change below about -65%; inconclusive = about -30% to -65%; inactive = above about -30%; further: on the % scale 0 is the no-effect control and ±100 the full control effect; compound concentration not given in the record
Target sequence (O00167 whole entry, looked up): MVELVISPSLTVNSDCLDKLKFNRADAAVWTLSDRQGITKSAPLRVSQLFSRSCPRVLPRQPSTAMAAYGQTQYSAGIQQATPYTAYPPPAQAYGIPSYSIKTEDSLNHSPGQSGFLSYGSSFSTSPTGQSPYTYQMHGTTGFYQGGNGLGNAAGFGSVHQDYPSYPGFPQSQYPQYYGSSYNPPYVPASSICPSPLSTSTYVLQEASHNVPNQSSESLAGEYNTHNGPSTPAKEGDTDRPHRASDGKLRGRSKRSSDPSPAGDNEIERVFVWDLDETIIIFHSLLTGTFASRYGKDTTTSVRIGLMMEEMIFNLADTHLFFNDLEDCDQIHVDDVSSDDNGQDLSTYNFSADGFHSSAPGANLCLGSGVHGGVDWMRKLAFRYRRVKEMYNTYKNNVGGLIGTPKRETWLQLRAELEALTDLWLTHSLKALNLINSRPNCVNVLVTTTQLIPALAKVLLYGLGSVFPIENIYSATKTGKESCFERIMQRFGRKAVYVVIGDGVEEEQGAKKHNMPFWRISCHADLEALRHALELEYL
Target sequence (Q15475 whole entry, looked up): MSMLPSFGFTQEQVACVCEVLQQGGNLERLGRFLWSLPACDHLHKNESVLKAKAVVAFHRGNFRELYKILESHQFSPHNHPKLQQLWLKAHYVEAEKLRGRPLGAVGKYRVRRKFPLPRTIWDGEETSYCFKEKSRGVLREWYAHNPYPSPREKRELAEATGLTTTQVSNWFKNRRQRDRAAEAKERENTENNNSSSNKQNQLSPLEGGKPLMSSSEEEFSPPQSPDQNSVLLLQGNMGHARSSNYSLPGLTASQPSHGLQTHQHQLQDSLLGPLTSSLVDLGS
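AlphaScreen with GST-Six1 and His-Eya2 (5X mix: 250 nM and 500 nM), glutathione donor and nickel acceptor beads; buffer 50 mM Tris pH 8.0, 300 mM NaCl, 1 mM TCEP; 1 h at 37 C in the dark.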
D2 agonist = Beta-Arrestin HTS for Positive Allosteric Modulators of the Human D2 Dopamine Receptor: Agonists. activation, % (no concentration beside the values). AID 624465, 2012. D(2) dopamine receptor (Homo sapiens), P14416. actives 0.084% (n = 360,000). DiscoveRx PathHunter D2 beta-arrestin, luminescence, 90 min; 100% = 57 uM dopamine signal; in the data active = activation above about 40%; inconclusive = about 15% to 40%; inactive = below about 15%; further: compound concentration not given in the record; the text of the record calls up to 30% inactive
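DiscoveRx PathHunter D2 beta-arrestin cells (2,100/well) attached overnight, then compound-stimulated 90 min at 37 C in HBSS/10 mM HEPES/0.1% Tween-20 buffer; beta-galactosidase complementation read by luminescence after 1 h at ambient temperature. Dopamine 57 uM final (EC100) as control.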
TRPML1 blocker = qHTS for Inhibitors of the Human Mucolipin Transient Receptor Potential 1 (TRPML1). Mucolipin-1 (Homo sapiens), Q9GZU1. TRPML1-inducible cells, Ca2+ dye fluorescence, FDSS; hits give low values; inhibition of EC80 agonist-evoked calcium signal. activity change, negative = inhibition, % (concentration not given with the values). actives 0.02% (n = 390,000). AID 624415, 2012; in the data active means activity change below about -50%; inconclusive means about -30% to -50%; inactive means above about -30%;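 further: stimulus is agonist 54-4 at its EC80 concentration; on the % scale 0 is the no-effect control and ±100 the full control effect; compound concentration not given in the record; the text of the record puts the active cut at -80%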
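Tet-induced TRPML1-DL cells loaded with Ca8 no-wash calcium dye were read kinetically on FDSS. Compound addition was followed by EC80 agonist 54-4 (4 uM final); inhibition was read over 110 s.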
PINK1 modulator = A Quantitative High throughput Screen to Identify Chemical Modulators of PINK1 Expression. PINK1 immunofluorescence, high-content cytometry, 24 h. Potency, µM (top dose mostly 76.6 µM), without a hit: top-dose activation (PINK1 increase), actives largely listed as activators. actives 0.2% (n = 410,000); active = well fitted activation curve with a large enough effect; inconclusive = small, poorly fitted or top-dose-only effect; inactive = flat fitted curve, though single readings scatter; cell line not stated here;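 further: potency means the concentration at half of the fitted maximal effect; % of control where 0% means no effect; nearly all actives have a fitted effect of over 65% in size; a mitochondrial uncoupler was the plate control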
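PINK1 protein level read as immunofluorescence by microplate cytometer in a fixed, stained stable cell line after 24 h exposure to five compound concentrations, with CCCP as control.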
TRPML1 agonist = qHTS for Agonists of the Human Mucolipin Transient Receptor Potential 1 (TRPML1); TRPML1-expressing cells, Ca2+ dye fluorescence, FDSS; host cell line not named in the record; reference of the full effect not given here; activation, % (concentration not given with the values); Mucolipin-1 (Homo sapiens), Q9GZU1; AID 624414, 2012; actives 0.12% (n = 410,000); in the data active = activation above about 50%; inconclusive = about 30% to 50%; inactive = below about 30%; further: 0% is about no effect; the text of the record puts the active cut at 80%
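In this qHTS format, compounds were pin-transferred onto Ca8-dye-loaded TRPML1-DL cells induced with Tet overnight, and intracellular Ca2+ fluorescence was recorded kinetically for 110 s after a 10 s baseline. A subsequent 4uM final 54-4 (EC80) addition followed by a second 110 s read served as the antagonist phase.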
CtBP-E1A inh = qHTS Assay for Inhibitors of the CtBP/E1A Interaction; activity change, % (test concentration not listed); actives 0.49% (n = 340,000); AlphaScreen GST-E1A/His-CtBP binding, 1536-well; hits give low values; control for the full effect not named in the record; in the data active means activity change below about -65%; inconclusive means about -30% to -65%; inactive means above about -30%; further: on the % scale 0 is the no-effect control and ±100 the full control effect; compound concentration not given in the record
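Homogeneous bead-based format: GST-tagged E1A captured on glutathione donor beads, His-tagged CtBP on nickel acceptor beads; compounds precede bead addition by 2 h at 37 °C.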
Active calls of the source: *; ? = inconclusive; . = no result given; & = joins results of further samples.

SMILES	Six1-Eya2 inh	D2 agonist	TRPML1 blocker	PINK1 modulator	TRPML1 agonist	CtBP-E1A inh
CCN(CC)S(=O)(=O)c1cccc(NC(=O)C(=O)c2c(-c3ccccc3)cc3ccccn23)c1	-14.2	-1.4	-2.0	0.7%	-0.4	-28.6
Cc1ccc[n+](CC(=O)N2CCCc3ccccc32)c1	3.5	3.0	33.7	-1.6%	1.3	-1.1
CCc1cc2c(SCC(=O)N3CCN(C(=O)c4cccs4)CC3)ncnc2s1	-2.8	0.3	-16.7	0.3%	-0.2	1.1
CCn1nc([N+](=O)[O-])c(C(C#N)c2nc3cc(C(F)(F)F)ccc3s2)c(Cl)c1=O (stereo not given)	?	-7.3	-0.3	?	-0.3	-24.9
CCOC(=O)c1[nH]c2ccc(Br)cc2c1NC(=O)CCN1CCCC(C)(C)C1	0.3	-5.9	3.1	0.9%	0.6	-19.9
CCOC(=O)C1CCN(C(=O)Cn2nc(C)n3nc(-c4ccc(CC)cc4)cc3c2=O)CC1	0.6	-4.2	-14.5	11.1%	-1.0	1.1
COc1ccc(CC2CC(=O)N(c3ccc(C)cc3)C2=O)cc1 (stereo not given)	2.7	7.4	0.8	0.4%	-0.5	8.2
CNC(=S)N1CCN(C(=O)C2CCCO2)CC1 (stereo not given)	1.1	3.5	49.2	2.2%	2.7	9.3
Cc1c(C)n(Cc2ccc(F)cc2)c2ccc(C(=O)NCCN3CCOCC3)cc12	-19.2	1.4	12.7	2.0%	-0.8	.
Cc1ccc(Cc2c(-c3cccc(Cl)c3)nc3cc(C)c(Br)c(C)n23)cc1	-8.7	-4.5	1.4	4.1%	-0.5	5.1
COc1ccc(-c2cc(C(=O)Nc3cccnc3Cl)no2)cc1OC	1.8	-3.2	-8.5&-25.2	11.3%&2.4%	-0.7&-1.1	-14.9
Nc1cc(=O)n(Cc2ccccc2)c(=O)n1-c1ccc(F)cc1	10.8	-7.3	-0.9	1.7%	-0.2	-22.7
CCOC(=O)C1=C(CSc2nc3c(cc2C#N)CN(C)CC3)OC(N)=C(C#N)C1c1ccccc1 (stereo not given)	-12.2	-0.6	-5.9	1.8%	0.8	-14.9
CCCCNc1nc2c(S(=O)(=O)c3ccc(C)c(C)c3)nnn2c2ccsc12	.	.	15.4	0.0%	2.2	.
CC(=O)NC(c1ccccc1)c1nc(-c2ccc(Cl)cc2)cs1 (stereo not given)	0.1	0.9	.	1.1%	-0.1	1.8
COc1cccc(CNC(=O)CCCN2C(=O)C(c3ccccc3)Oc3cccnc32)c1OC (stereo not given)	-0.8	3.8	8.7	0.9%	-0.5	-6.0
COC(=O)CC1(C(=O)OC)Nc2cc(Cl)c(Cl)cc2S(=O)(=O)N1O (stereo not given)	-1.2	9.8	2.1	0.1%	-0.3	-13.5
CCc1ccc(NC(=S)Nc2ccc3[nH]c(=O)[nH]c3c2)cc1	0.1	-0.2	-17.5	3.5%	-0.7	-22.0
Cc1ccc(CS(=O)(=O)Cc2ccc(C(=O)NC3CCCC3)o2)cc1	0.8	-3.1	-4.8	-0.6%	1.0	.
COc1ccccc1C1OC(c2cccc([N+](=O)[O-])c2)=NN1C(C)=O (stereo not given)	-1.8	0.5	-5.0	0.9%	0.1	2.3
CCOC(=O)N1CCN(C(=O)c2ccc3c(c2)NC(=O)/C(=C\c2cccc(C)c2)S3)CC1	-12.1	4.1	14.8	0.9%	0.0	.
COc1ccc(-n2c(=O)c3ccccc3n(CC(=O)NC3CCCCC3)c2=O)cc1	4.5	-0.4	-3.0	-0.3%	-0.2	7.7
COc1ccc(NC(=O)c2cc3cccc(OC)c3oc2=Nc2ccc(C(=O)O)cc2)cc1OC	3.6	1.0	0.7	5.4%	-0.2	-2.2
COC(=O)COc1ccc(S(=O)(=O)NCc2ccncc2)cc1	-2.2	6.6	4.3	-2.7%	4.1	5.1
COc1ccc(CCNC(=O)CCn2c(=O)c3cccn3c3ccc(F)cc32)cc1OC	.	.	14.5	1.1%	0.8	.
CCN(CC)CC(=O)Nc1ccc(Oc2ccc(NC(=O)CN(CC)CC)cc2)cc1	3.1	-6.2	-21.2	-1.1%	0.9	0.1
O=C(COC(=O)c1ccc(N2CCCC2=O)cc1)NCc1ccco1	3.6	-2.9	-6.9	0.0%	0.3	-3.4
CCN(CC)CCNC(=O)Cn1cnc2sc(C)c(S(=O)(=O)N3CCC(C)CC3)c2c1=O	3.9	-2.4	40.3&3.7	-0.3%&-0.9%	0.2&-0.4	1.3
Cc1ccc(CC(=O)NC2CCSC2=O)cc1 (stereo not given)	8.5	-2.9	0.0	-1.4%	0.5	.
COC(=O)c1ccc(C2C(C(=O)Nc3ccc(C)cc3C)=C(C)Nc3ncnn32)cc1 (stereo not given)	2.2	-6.1	40.8	3.9%	-0.1	0.6
CCc1ccccc1NC(=O)c1cc(S(=O)(=O)N2CCCc3ccccc32)ccc1F	.	.	41.6	0.3%	1.7	.
CSC1=C(C#N)C(c2ccc(Cl)cc2)C2=C(CC(C)(C)CC2=O)N1 (stereo not given)	0.3	-3.8	10.3	4.3%	-0.5	0.3
O=[N+]([O-])c1cccc(CON=Cc2cc(Cl)ccc2O)c1	-13.7	-3.5	15.7	?	1.5	-8.1
CCc1cccc(NS(=O)(=O)c2ccc3c(c2)NC(=O)CO3)c1	3.2	3.6	15.8	1.4%	0.9	-12.1
COCCN1C(=O)N(c2ccc(OC)cc2)C(=O)C1CC(=O)Nc1cccc(F)c1 (stereo not given)	-0.1	-5.8	15.7	1.5%	0.9	7.7
CCCCN(CC)C(=O)c1c[nH]c2ccc(S(=O)(=O)Nc3cccc(OC)c3)cc2c1=O	.	.	63.5	0.8%	0.5	.
NC(=O)CC[C@@H]1NC(=O)[C@@H]2CCCN2C(=O)c2cc([N+](=O)[O-])cc(I)c2NCCC[C@@H](C(N)=O)NC1=O	-1.1	-0.4	6.2	1.3%	-0.2	4.8
NS(=O)(=O)c1ccc(CCNC(=O)C2COc3ccccc3C2)cc1 (stereo not given)	.	.	-10.8	-0.2%	-0.5	.
CCn1cc(C(=O)N2CCN(c3ccccc3OC)CC2)c(=O)c2cc(S(=O)(=O)N3CCCCC3)ccc21	.	.	-2.0	3.7%	-0.9	.
CN(c1ccc(OCC(=O)Nc2ccc(S(N)(=O)=O)cc2)cc1)S(=O)(=O)c1ccc(F)cc1	0.2	1.8	-11.2	-0.9%	1.7	-2.1
O=C(CC12CC3CC(CC(Br)(C3)C1)C2)OCCN1CCCCC1	3.1	-7.3	3.5	2.9%	-0.7	-2.5
Cc1ccc(CNC(=O)CSc2nc3ccsc3c(=O)n2Cc2ccccc2F)cc1	.	.	12.4	0.4%	1.7	.
C[C@@H]1CC=C[C@H]2[C@H]1C(=O)N(Cc1ccccc1)[C@H]2c1ccc(F)c(/C=C/c2ccccc2)c1	15.9	-3.6	33.2	11.5%	0.2	17.6
Cc1ccc(OCCN2C(=O)C(=O)c3cc(C)ccc32)cc1	-2.2	-15.0	14.6	5.5%	0.0	-6.2
Cc1ccc(C)c(S(=O)(=O)Nc2ccc(C(=O)NCCCN(C)C)cc2)c1	1.7	-0.7	-16.2	0.4%	0.2	2.8
COc1ccc(-c2c(-c3cc(OC)cc(OC)c3)n(C)c3ccc(-c4ccn[nH]4)cc23)cc1	?	-1.9	-7.0	7.0%	0.1	?
Cc1ccc(NC(=O)C2=CN3CCS(=O)(=O)N=C3C=C2)cc1	2.6	0.6	2.6	0.7%	-0.4	-3.4
Cc1ccc(NC2CCCN(C(=O)c3ccccn3)C2)cc1C (stereo not given)	3.0	0.5	26.2	0.3%	0.4	.
Cc1cc(-c2ccccc2)oc(=O)c1NC(=O)c1ccccc1	2.4	0.0	-11.8	9.4%	-1.1	15.5
Cc1cc(Br)cc(C=Nc2ccc(N3CCOCC3)cc2)c1O	9.3	6.8	6.2	-0.6%	1.1	3.6
CNC(=S)Nc1ccc(OC(F)(F)F)cc1	2.2	3.4	-13.5	0.9%	0.6	8.8
Cc1[nH]cnc1CN1CCc2c(c3ccccc3n2C)C1=O	-5.2	-5.4	-13.0	0.7%	-0.2	1.6
CCOC(=O)C1CCCCN1Cc1cccc(Oc2ccccc2)c1 (stereo not given)	32.5	-2.5	17.3	23.5%	1.3	21.4
COc1cccc(-c2cnc3c(NC(C)=O)cc(-c4ccc(OC)c(OC)c4)cn23)c1	-16.3	2.3	.	0.4%	-0.7	-15.3
CCOC(=O)C1(C(=O)OCC)NC(=O)CC1C (stereo not given)	3.7	2.4	1.0	0.8%	-0.2	5.4
O=C(CC1C(=O)N(c2ccccc2)C(=S)N1c1ccccc1)c1ccccc1 (stereo not given)	9.0	4.0	0.2	0.7%	2.4	.
Cn1c(=O)c2c(nc(CN3CCOCC3)n2CCCO)n(C)c1=O	6.1	-0.7	6.6	-0.4%	-0.1	1.2
Cc1ccc(S(=O)(=O)ON2C(=O)c3ccccc3C2=O)c(C)c1	-1.8	-5.3	16.5	0.4%	-0.2	1.3
O=C1Nc2ccc(S(=O)(=O)N3CCCC3C(=O)O)c3cccc1c23 (stereo not given)	-0.1	-2.5	-1.4	0.4%	-0.2	-4.3
O=C(NC1CCCCC1)Oc1cccc2ccccc12	5.1	1.6	4.1	0.5%	0.9	-1.2

Structures above with an aryl thioether with sulfur outside any ring:
SMILES	Six1-Eya2 inh	D2 agonist	TRPML1 blocker	PINK1 modulator	TRPML1 agonist	CtBP-E1A inh
CCc1cc2c(SCC(=O)N3CCN(C(=O)c4cccs4)CC3)ncnc2s1	-2.8	0.3	-16.7	0.3%	-0.2	1.1
CCOC(=O)C1=C(CSc2nc3c(cc2C#N)CN(C)CC3)OC(N)=C(C#N)C1c1ccccc1 (stereo not given)	-12.2	-0.6	-5.9	1.8%	0.8	-14.9
Cc1ccc(CNC(=O)CSc2nc3ccsc3c(=O)n2Cc2ccccc2F)cc1	.	.	12.4	0.4%	1.7	.

Next section:
SMILES	Six1-Eya2 inh	D2 agonist	TRPML1 blocker	PINK1 modulator	TRPML1 agonist	CtBP-E1A inh
O=C(CSc1ccc(Cl)cc1)N/N=C/c1cccnc1	8.5	-3.3	65.3	0.4%	-1.1	0.0
CCc1nnc(NC(=O)CCC(=O)NCc2ccc(OC)cc2)s1	-10.7	-7.3	-1.2	-0.7%	-0.6	0.6
COc1ccc(C)cc1NC(=O)CN1C(=O)COc2ccc(S(=O)(=O)N3CCC(C)CC3)cc21	-0.9	-2.7	3.9&-13.9	10.4%&6.1%	-0.9&4.2	4.5
COc1ccc(S(=O)(=O)N(CC(=O)NCc2ccco2)c2ccc(F)cc2)cc1	-1.4	-2.2	2.1	4.7%	-0.5	0.0
COC(C(=O)Nc1ccc(Br)cc1F)c1ccccc1 (stereo not given)	30.5	-2.9	15.9	4.8%	1.3	.
